Source: PubChem BioAssay (several laboratories)
HNF4A DNA FP = change in binding of human HNF4 alpha to DNA; activity change, % at 10 µM; HNF4a-FITC DNA binding, fluorescence polarization, 1 h; hit rate 0.3% among 360,000; AID 1224865; in the data active = activity change above about 30%, passing the limit was not always enough;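 note: controls were the assay level and a saturating level of protein; the project sought stronger binding though the title names inhibitors; some compounds called inactive have numbers as strong as hits; positive values seem to mean higher polarization but the record does not say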
Target sequence (P41235 whole entry, looked up): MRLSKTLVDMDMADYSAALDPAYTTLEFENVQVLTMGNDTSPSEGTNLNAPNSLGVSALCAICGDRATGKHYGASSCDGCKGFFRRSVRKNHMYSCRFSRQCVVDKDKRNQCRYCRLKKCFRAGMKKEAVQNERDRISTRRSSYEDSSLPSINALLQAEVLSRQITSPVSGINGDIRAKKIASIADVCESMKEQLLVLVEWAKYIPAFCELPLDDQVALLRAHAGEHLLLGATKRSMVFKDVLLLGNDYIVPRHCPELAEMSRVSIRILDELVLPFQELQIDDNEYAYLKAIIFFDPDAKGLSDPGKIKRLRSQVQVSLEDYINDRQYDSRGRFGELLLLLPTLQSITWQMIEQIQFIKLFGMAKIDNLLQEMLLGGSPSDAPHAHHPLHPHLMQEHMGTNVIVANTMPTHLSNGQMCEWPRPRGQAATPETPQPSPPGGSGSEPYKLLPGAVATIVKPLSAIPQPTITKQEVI
B2AR ag = activates human beta-2 adrenergic receptor causing internalization; hit rate 0.43% among 340,000; P07550; AID 504454; response, % (no concentration beside the values); Am2.2-beta2AR cells, FAP receptor internalization, flow cytometry; reference of the scale not given here;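 active = response above a set limit, near 3 SD of response in nonfluorescent compounds, cut at about 42% in these data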;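 note: stock transfer was 100 nL into about 11 µL; a reference agonist was the positive control; negative values mostly stem from fluorescent compounds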
Ecoli growth = blocks Escherichia coli growth; OD600, 23 h; stronger effect = lower value; hit rate 0.21% among 330,000; OD600 absorbance (concentration not given with the values);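 active = OD600 absorbance below the run mean of sample wells minus 3.6 SD, in any replicate, cut at about 0.56 in these data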;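 note: stock transfer was 300 nL into about 60 µL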
ALR H2O2 inh = inhibitors of human sulfhydryl oxidase ALR | inhibition, % (concentration not given with the values) | hit rate 3.8% among 290,000 | AID 485317 | purified ALR, DTT oxidation, H2O2 HRP-luminol luminescence;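 active = mean and each replicate at 75% or more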;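 note: stock transfer was 7.5 nL into about 7.5 µL; 0% = neutral wells and 100% = wells with inactivated enzyme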
Target sequence (P55789 whole entry, looked up): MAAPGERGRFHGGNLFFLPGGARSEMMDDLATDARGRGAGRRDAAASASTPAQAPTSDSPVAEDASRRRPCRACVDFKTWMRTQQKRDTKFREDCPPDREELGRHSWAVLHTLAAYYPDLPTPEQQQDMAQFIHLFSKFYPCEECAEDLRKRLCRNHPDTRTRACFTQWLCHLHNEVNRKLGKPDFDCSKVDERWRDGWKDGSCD
LANA-H2B inh = blocks KSHV LANA binding to histone H2A/H2B. cell-free LANA-H2A/H2B peptide, fluorescence polarization. inhibition, % (no concentration beside the values). hit rate 0.6% among 320,000; in the data active = inhibition mostly above about 10%, no sharp cut-off; inactive = mostly below about 6.7%;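 note: stock transfer was 7.5 nL into about 10 µL; 0% = median of vehicle wells and 100% = median of positive control wells; one replicate is shown; the record names a cut of 25% in any replicate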
UCH37 inh = human UCH37 deubiquitinating enzyme inhibition; Q9Y5K5; purified proteasome/UCH37, Ub-AMC cleavage fluorescence; inhibition, % (concentration not given with the values); hit rate 0.33% among 330,000;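 active = mean of two replicates above 20%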;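 note: 0% = compound-free wells with enzyme and 100% = wells lacking proteasome; stock transfer was 100 nL into about 20 µL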
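system = Proteasome-associated human UCH37 deubiquitinase | amount = 0.15 nM proteasome as dispensed | medium = pH 7.4 Tris-HCl (50 mM) with ovalbumin, ATP-MgCl2, DTT | incubation = 30 min preincubation with enzyme, 25 min cleavage at room temperature | detection = AMC fluorescence 355/460 nm | read-out basis = percent inhibition | controls = no-proteasome and no-compound wells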
FGF22 binding = binders of recombinant human FGF22 by thermal shift. Q9HCT0. SYPRO orange fluorescence; percent of sucrose octasulfate shift, DMSO zero. calls only at 9.99 µM. hit rate 1.5% among 340,000;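 active = melting point raised past a set limit in the mean and every replicate; three in four hits are not shown here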
Target sequence (Q9HCT0 whole entry, looked up): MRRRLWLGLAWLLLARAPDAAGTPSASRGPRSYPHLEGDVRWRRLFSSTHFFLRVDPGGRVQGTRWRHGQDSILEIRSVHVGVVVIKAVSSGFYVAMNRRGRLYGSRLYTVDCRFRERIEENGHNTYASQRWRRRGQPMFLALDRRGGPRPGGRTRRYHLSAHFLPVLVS
Active calls of the source: *; i = inactive; . = not tested or not shown; & = joins results of further samples. Some of the compounds tested. The share of hits here may be higher or lower than overall.

SMILES	HNF4A DNA FP	B2AR ag	Ecoli growth	ALR H2O2 inh	LANA-H2B inh	UCH37 inh	FGF22 binding
COc1ccc(C2OCC3(O)C(c4ccc(OC)c(OC)c4)OCC23)cc1OC (centres undefined)	-0.9	-4	0.8	-5	0.4	0.2	i
O=C(COC(=O)/C=C/c1ccc(F)cc1)NCC1CCCO1 (centres undefined)	1.7	0	0.71	.	5.4	3.1	i
CC1CC(C)(C)CC2(C1)NC(=O)N(CC(=O)Nc1c(F)cccc1F)C2=O (centres undefined)	-0.1	-3	0.69	-7	7.9	0.4	i
CC1CCCC(C)N1C(=O)Nc1cccc(Cl)c1 (centres undefined)	0.7	2	0.67	-21	2.7	3.7	.
O=C1CC(c2ccc(S(=O)(=O)N3CCN(c4ccccc4)CC3)cc2)CN1 (centres undefined)	-2.0	-1	0.7	-2	1.4	-0.5	.
COc1cc2nc(CN3CCN(S(=O)(=O)c4ccc(C)c(C)c4)CC3)[nH]c(=O)c2cc1OC	-2.1	15	0.69	-1	0.8	0.8	i
O=C(COc1ccc(Cl)cc1)N1CCN(Cc2ccc3c(c2)OCO3)CC1	3.3&1.9	7&-1	0.67&0.68	-13	-4.4&4.0	0.1&-3.3	i
COc1ccccc1Nc1ccc(S(=O)(=O)N2CCCCC2)cc1[N+](=O)[O-]	4.5	8	0.72	-2	-2.3	0.0	i
C=C(C)Cn1c(CCNC(=O)C(C)C)nc2ccccc21	-1.3	9	0.71	0	-1.2	4.9	.
COC(=O)C1CCN(CC(=O)Nc2cc(Cl)ccc2OC)CC1	.	.	0.64	-3	-5.4	4.8	.
Cc1cc(C)cc(N(CC(=O)N2CCN(c3ccccc3)CC2)S(=O)(=O)c2c(C)noc2C)c1	0.7	2	0.76	-88	1.8	4.3	i
Cc1ccc(-n2c(-c3cc(-c4ccco4)[nH]n3)n[nH]c2=S)c(Br)c1	-2.7	-1	0.65	42	-4.8	3.3	i
CCCn1c(/N=C/c2cc(OC)ccc2O)nc2ccccc21	2.3	8	.	2	-1.2	.	.
N#CC(C#N)=C1CCCc2sccc21	2.9	-7	.	.	.	.	i
Cc1cc(/C=N/Nc2ccc([N+](=O)[O-])cn2)c(C)n1-c1ccc(C(=O)O)cc1	16	-41	.	73	6.3	.	i
Cc1ccc(C(C(=O)NC2CCCCC2)N(CCC(C)C)C(=O)CNC(=O)c2ccco2)o1 (centres undefined)	-3.4	-5	0.67	21	-1.1	6.0	.
O=C(Nc1ccc(F)cc1)c1ccc(=O)[nH]n1	4.0	-3	0.68	-2	-1.1	-0.1	i
O=C(CSc1nnc(Cn2c(=O)sc3ccccc32)n1CCc1ccccc1)N1CCOCC1	-1.1	0	0.66	.	1.0	1.5	.
CCN(CC(=O)NCc1cccs1)C(=O)c1ccc(S(=O)(=O)N(C)C)cc1	4.0	1	0.64	-9	4.3	2.3	i
CCOC(=O)C1CCCN(S(=O)(=O)c2ccc(-n3cnnn3)c(C)c2)C1 (centres undefined)	-0.2	1	0.65	3	0.9	2.0	i
Nc1nc2ccccc2n1/N=C/c1ccc(Br)cc1	-0.1	-17	.	-2	4.9	.	i
CC[C@]12c3[nH]c4ccc(Cl)cc4c3CCN1C(=O)[C@@H](CC(=O)NCC13CC4CC(CC(C4)C1)C3)C[C@@H]2C(=O)N1CCN(C(=O)c2ccco2)CC1	1.4	16	0.7	.	.	2.7	i
Cc1cc(C(=O)CSc2nnc(N)s2)c(C)n1CCc1ccc(F)cc1	-1.6	4	0.72	.	-2.4	5.7	.
CC1CCCC(C)N1C(=O)COC(=O)CN1C(=O)c2ccccc2C1=O (centres undefined)	-0.9	2	0.71	6	1.1	-1.4	i
CC(C)(C)c1ccc(C(=O)N2CCC(C(=O)NCc3ccncc3)CC2)cc1	0.9	7	0.71	.	-1.1	0.3	.
O=C1c2cccnc2C(=O)N1Cc1ccco1	4.5	9	0.7	-15	4.1	-1.1	.
O=C(CN(Cc1ccccc1)S(=O)(=O)c1ccc(F)cc1)NCc1cccnc1	4.0	0	0.71	3	-3.2	2.6	i
O=C(Nc1ccccn1)C1(c2ccccc2)CCCC1	1.8	13	0.75	-5	5.0	1.1	i
CCOc1nc(C)ccc1-c1noc(C)n1	-1.4	6	0.7	.	0.2	3.9	.
CC(=O)Nc1ccc(-c2csc(Nc3ccc(S(N)(=O)=O)cc3)n2)cc1	1.9	5	0.64	18	3.1	3.5	i
COc1cc(F)c(C2=CC(=O)C[C@H](c3ccc4c(c3)OCO4)C2)cc1F	0.1	-14	0.76	-2	-1.1	-3.0	i
CC(C)(C)c1ccc(OCc2nc(-c3ccccn3)no2)c(Br)c1	2.6	-16	0.71	-3	0.3	2.5	.
O=C(Cn1cc(C(F)(F)F)cc(Cl)c1=O)NCC1COc2ccccc2O1 (centres undefined)	-1.6	2	0.68	3	-2.4	2.3	i
C[C@@H]1CN([C@H](C)CO)C(=O)Cc2cc(NC(=O)CCC(F)(F)F)ccc2O[C@@H]1CN(C)S(=O)(=O)c1ccccc1	1.1	-13	.	.	.	.	i
Cc1noc(-c2ccccc2)c1NC(=O)Nc1ccc(Cl)cc1	1.0	0	0.63	1	-0.4	2.9	i
O=C(COC(=O)c1cccs1)Nc1ccc(F)c(F)c1	0.6	3	0.65	.	5.3	2.1	i
C=C1Cn2c(nnc2-c2ccc(Cl)cc2)S1	-1.4	-26	0.7	-2	-7.2	5.5	i
CC(=O)N1CCN=C1SCc1ccc(Cl)cc1	-4.0	-17	0.74	98*	3.9	3.0	i
CN1CCN(C(=O)c2cnn3c(C(F)F)cc(C4CC4)nc23)CC1	0.0	-20	0.82	0	0.6	-1.1	.
O=c1oc2ccccc2c(NC2CCCCC2)c1NS(=O)(=O)c1ccc(F)cc1	-4.1	4	0.71	10	1.6	-2.8	i

Just Ecoli growth, HNF4A DNA FP and FGF22 binding, for 4 of the compounds above:
Structure | Ecoli growth | HNF4A DNA FP | FGF22 binding
O=C(COC(=O)c1cccs1)Nc1ccc(F)c(F)c1 | 0.65 | 0.6 | i
C=C1Cn2c(nnc2-c2ccc(Cl)cc2)S1 | 0.7 | -1.4 | i
CC(=O)N1CCN=C1SCc1ccc(Cl)cc1 | 0.74 | -4.0 | i
CN1CCN(C(=O)c2cnn3c(C(F)F)cc(C4CC4)nc23)CC1 | 0.82 | 0.0 | .

(cont.)
SMILES	HNF4A DNA FP	B2AR ag	Ecoli growth	ALR H2O2 inh	LANA-H2B inh	UCH37 inh	FGF22 binding
CCN1C(=O)[C@H]2[C@@H](c3ccc(-c4ccc(OC)cc4)cc3)N[C@@](Cc3ccccc3)(C(=O)OC)[C@H]2C1=O	1.3	7	.	4	-6.4	-0.8	i
CCOC(=O)C(Sc1cc(C)nc(N)n1)C(C)=O (centres undefined)	-2.0	12	0.7	5	3.6	-1.0	.
CN(Cc1nc(-c2cccs2)no1)CC1(N2CCOCC2)CCCCC1	2.7	-5	0.68	3	-3.5	2.9	i
O=C(CCC(=O)N1CCN(Cc2ccccc2)CC1)Nc1nnc(C2CCCCC2)s1	3.6	-6	0.65	-4	-0.2	1.8	i
CN(CC(=O)Nc1cc(S(=O)(=O)N2CCCC2)ccc1Cl)Cc1ccc2c(c1)OCO2	0.9	3	0.71	-41	-1.3	-1.6	i
COc1ccc(CCNC(=O)c2oc3ccc(OC)cc3c2C)cc1	4.4	-6	0.7	-2	-2.6	-3.6	i
COc1ccc(C(=O)NCCCCCC(=O)O)cc1OC	0.9	2	0.74	-1	2.9	1.9	.
O=C(NC1CCOCC1)C1CCC(=O)N(CCc2ccc(Cl)cc2)C1 (centres undefined)	-1.7	5	0.67	-1	-2.0	-0.4	i
CNc1nc(Nc2ccc(C)c(Cl)c2)nc(N)c1[N+](=O)[O-]	3.1	0	0.65	.	-5.3	5.3	.
COc1ccc(C2CC(=O)Oc3cc(OC)c(OC)c(OC)c32)cc1 (centres undefined)	-0.7	-4	0.7	.	.	0.8	i

An excerpt of these results, with values under each structure:
Under each structure – HNF4A DNA FP	B2AR ag	Ecoli growth	ALR H2O2 inh	LANA-H2B inh	UCH37 inh	FGF22 binding
- CN(Cc1nc(-c2cccs2)no1)CC1(N2CCOCC2)CCCCC1
 : 2.7	-5	0.68	3	-3.5	2.9	i
- O=C(CCC(=O)N1CCN(Cc2ccccc2)CC1)Nc1nnc(C2CCCCC2)s1
 : 3.6	-6	0.65	-4	-0.2	1.8	i
- CN(CC(=O)Nc1cc(S(=O)(=O)N2CCCC2)ccc1Cl)Cc1ccc2c(c1)OCO2
 : 0.9	3	0.71	-41	-1.3	-1.6	i

The listing continues.
SMILES	HNF4A DNA FP	B2AR ag	Ecoli growth	ALR H2O2 inh	LANA-H2B inh	UCH37 inh	FGF22 binding
O=C(Nc1ccc(S(=O)(=O)N2CCCC2)cc1)Nc1ccc(F)cc1F	-1.2	4	0.65	-1	2.4	-1.1	i
COc1ccc(CC(=O)Nc2ccc(N(C)C)c3ccccc23)cc1	-1.4	8	0.67	-8	-0.6	-106	i
CCOC(=O)c1ccc(NC2Nc3cc(C)nn3S2)cc1 (centres undefined)	11	-1	0.74	-11	-2.7	4.8	i
COC(Cc1nnc(SC)n1-c1ccccc1)OC	-0.4	1	0.7	6	-3.4	0.0	.
Cc1cccc(OCC(=O)N2CCC(N3CCCCCC3)CC2)c1	2.1	0	0.73	-24	4.8	0.1	.
S=c1[nH]nc(Nc2ccccc2Cl)s1	7.7	2	0.66	.	3.8	2.0	.
Cc1[nH][nH]c(=O)c1C(c1ccc(-c2ccc(Cl)c(Cl)c2)o1)c1c(C)[nH][nH]c1=O	3.0	1	0.63	21	-1.8	42*	.
CC1Cc2cc(S(=O)(=O)N3CCCC(C(=O)N4CCCCC4)C3)ccc2N1C(=O)C1CC1 (centres undefined)	-1.1	-4	0.7	-2	-0.2	-0.1	i
O=C1C2CCCCN2C(=O)N1CCCCN1CCN(c2ccc(F)cc2)CC1 (centres undefined)	-2.3	-2	0.65	20	0.0	1.8	i
O=[N+]([O-])c1ccc(OCCOc2ccccc2/C=N/n2cnnc2)cc1	0.3	1	.	-11	-0.1	.	i
COc1cccc(C(=O)NCCC(=O)NCc2cc(=O)n(C)c(=O)n2C)c1	-1.2	-2	0.72	-2	0.0	-1.9	i
Cc1ccc(C)c(NC(=O)CN(C)C(=O)c2ccccc2OCc2ccccc2Cl)c1	-2.0	-2	0.72	-12	4.6	-1.0	i
COc1ccc(-c2nc(CS(=O)CC(=O)NCCCN3CCCC3)c(C)o2)cc1OC (centres undefined)	-1.3	0	0.75	99*	-1.5	-2.1	.
Cc1ccc(N2CC(C(=O)Nc3ccc(N4CCOCC4)cc3)CC2=O)cc1C (centres undefined)	1.7	6	0.68	-7	3.3	4.9	.
Cc1coc2cc3oc(=O)c4c(c3cc12)CCCC4	2.7	-6	0.73	0	0.4	-20	i
Cc1sc(Nc2ccc([N+](=O)[O-])cc2)nc1-c1c(C)n(C)n(-c2ccccc2)c1=O	-2.3	-12	0.69	28	-3.4	9.4	.
COc1ccc(N(C)S(=O)(=O)c2ccc(Cl)c(C(=O)NNC(=O)c3ccccc3O)c2)cc1	-2.2	-4	0.63	.	.	1.7	i
Cc1cc(C(C)(C)C)ccc1Oc1cccc2c1S(=O)(=O)N(C1CCCC1)CC(COCc1ccccc1)O2 (centres undefined)	1.3	-2	.	.	.	.	i
CCOC(=O)C1=C(COC(=O)/C=C/c2ccc(O)c(OC)c2)NC(=O)NC1C (centres undefined)	4.2	22	0.67	65	-1.1	-4.5	i
COc1ccccc1CNc1ncnc2c1nnn2Cc1ccccc1	4.0	-4	0.75	-1	-0.7	-1.6	.
O=C1Nc2c(c(=O)[nH]c(=O)n2-c2ccccc2)C1(Nc1ncccn1)C(F)(F)F (centres undefined)	2.4	8	0.68	-2	-9.2	1.3	.
COc1ccc(N(CC(=O)Nc2cccc3ccccc23)S(C)(=O)=O)cc1	-1.9	0	0.67	-34	0.1	2.5	i
O=C(C[n+]1ccc2ccccc2c1)c1cccc2ccccc12	-4.2	16	0.63	-34	1.9	1.6	i
CCCc1cc(=O)n2[nH]c(C)cc2n1	0.4	-2	0.64	-2	-1.7	-4.2	.
O=C(c1ccco1)N1CCN(Cc2nc3ccc([N+](=O)[O-])cc3c(=O)n2-c2ccccc2F)CC1	-1.2	-21	0.71	.	1.6	2.6	.
